TRPV1 PAM: potentiators of human vanilloid receptor 1 (TRPV1) | 0.02% of 320,000 active | Q8NER1 | TRPV1-expressing cells, Fluo-8 calcium influx, capsaicin EC20 potentiation; host cell line not named in the record; control for the full effect not named in the record | AID 540277 | potentiation, % at 8.33 µM; active means potentiation above 80%; inconclusive means 30% to 80%; inactive means below 30%; further: 0% is about no effect
Target sequence (Q8NER1 whole entry, looked up): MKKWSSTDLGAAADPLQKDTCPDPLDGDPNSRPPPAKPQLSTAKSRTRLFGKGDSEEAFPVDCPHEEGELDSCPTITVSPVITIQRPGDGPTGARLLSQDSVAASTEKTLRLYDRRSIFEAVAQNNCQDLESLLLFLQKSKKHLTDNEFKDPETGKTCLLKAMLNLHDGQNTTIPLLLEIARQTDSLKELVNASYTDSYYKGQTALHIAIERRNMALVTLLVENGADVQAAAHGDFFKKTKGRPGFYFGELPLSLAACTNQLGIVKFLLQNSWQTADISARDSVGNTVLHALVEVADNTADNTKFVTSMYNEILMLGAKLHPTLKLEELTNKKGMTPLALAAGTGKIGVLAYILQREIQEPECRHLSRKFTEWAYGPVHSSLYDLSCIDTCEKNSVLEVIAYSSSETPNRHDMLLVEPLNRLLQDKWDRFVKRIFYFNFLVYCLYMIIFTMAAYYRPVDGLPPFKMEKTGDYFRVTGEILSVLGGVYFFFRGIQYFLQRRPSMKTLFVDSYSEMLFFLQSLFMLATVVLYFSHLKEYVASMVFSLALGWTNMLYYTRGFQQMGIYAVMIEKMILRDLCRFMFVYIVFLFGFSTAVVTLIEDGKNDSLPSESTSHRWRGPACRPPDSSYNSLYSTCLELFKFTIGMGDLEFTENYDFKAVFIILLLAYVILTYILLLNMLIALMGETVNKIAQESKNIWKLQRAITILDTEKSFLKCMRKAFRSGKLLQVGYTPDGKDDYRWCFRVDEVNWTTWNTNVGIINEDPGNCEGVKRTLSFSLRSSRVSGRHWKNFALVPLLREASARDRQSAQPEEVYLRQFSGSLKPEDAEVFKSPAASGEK
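Cells expressing TRPV1 were dye-loaded with Fluo-8 and read kinetically: 10 s baseline, 3 min after compound (agonist portion), then 2 min after EC20 capsaicin (allosteric enhancer portion). Calcium-bound dye fluorescence at 480/520 nm.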
Sfp PPTase inh: Sfp phosphopantetheinyl transferase inhibition. Potency, µM, inactives show max response, negative = inhibition, actives largely listed as inhibitors. Q9F4F7. Biochemical Sfp PPTase activity, qHTS. AID 1490. 3.5% of 310,000 active; active means well fitted inhibition curve with a large enough effect; inconclusive means small, poorly fitted or top-dose-only effect, or another doubt; inactive means no such curve, though single readings can be large or run the other way;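 further: the enzyme is Sfp with the accession as filed and its product quenches rhodamine fluorescence; potency means the concentration at half of the fitted maximal effect; 0% = enzyme reaction without inhibitor and -100% = no enzyme wells; top concentration of the series not given in the record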
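Compounds were incubated with enzyme (final 15 nM) for 15 min at room temperature before substrate addition started the reaction. Fluorescence at 525 nm excitation, 598 nm emission was recorded immediately and after 30 minutes.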
Menin-MLL FL inh: displaces fluorescein MLL peptide from human menin; Fluorescence polarization, fluorescein-MLL peptide displacement from menin; FP activity change, % at 61.4 µM; AID 1766; 290,000 tested, under 10 active; inconclusive = falling polarisation curve, or a change in total fluorescence; inactive = total fluorescence flat and polarisation flat or rising; no compound was filed as active; the % refers to the polarisation; negative = inhibition;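 further: % of control where 0% means no effect; inhibitors lower the polarisation; unlabelled MLL peptide was the positive control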
D2 PAM: potentiates the human D2 dopamine receptor allosterically; DiscoveRx D2 beta-arrestin cells, luminescence, 90 min; 100% = 57 uM dopamine signal; potentiation, % (no concentration beside the values); AID 624464; P14416; 0.23% of 360,000 active; active = potentiation of 50% or more; inconclusive = 30% to 50%; inactive = 30% or less;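 further: compound concentration not given in the record; tested on top of an EC20 dose of dopamine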
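PathHunter beta-arrestin assay in DiscoveRx D2 cells. Compounds were added with an EC20 of dopamine (50 nM final) for 90 min at 37 deg C. Luminescence was read 1 h after detection reagent, with 57 uM dopamine as the EC100 control.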
gsp ag: activates gsp, the McCune-Albright syndrome mutation. gsp mutant cells, cAMP HTRF, 30 min; control for the full effect not named in the record. Potency, µM (highest dose often 76.9 µM), for the others: top-dose activation (cAMP increase), actives largely listed as activators. 0.13% of 340,000 active; active = well fitted activation curve with a large enough effect; inconclusive = small, poorly fitted or top-dose-only effect, or another doubt; inactive = no such curve, though single readings can be large or run the other way; cell line not stated here;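 further: phosphodiesterase inhibitor Ro 20-1724 added with compounds to block cAMP breakdown; potency means the concentration at half of the fitted maximal effect; nearly all actives have a fitted effect of over 60% in size; about a fifth of the inactives were tested at one dose only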
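Cells in DMEM/10% FBS with G418 were pretreated with compounds in DMSO plus […] (300 uM stock) for 30 min at 37C. cAMP was measured by HTRF (cAMP-d2 plus anti-cAMP antibody-K) after 30 min at room temperature.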
ClpP mod: qHTS Assay for Activators of ClpP; purified B. subtilis ClpP, FRET peptide cleavage, 20 min; ATP-dependent Clp protease proteolytic subunit (Bacillus subtilis (strain 168)), P80244; 1.9% of 340,000 active; Potency, µM (highest dose often 57.5 µM), inactives show at the highest dose activity change, negative = active; active = well fitted falling curve with a large enough effect; inconclusive = small, poorly fitted or top-dose-only effect; inactive = no such curve, though single readings can be large or run the other way; further: potency means the concentration at half of the fitted maximal effect; the source files actives as falling curves though it sought activators and does not explain the sign; nearly all actives have a fitted effect of over 65% in size; many hits overshoot -100%
Target sequence (P80244 whole entry, looked up): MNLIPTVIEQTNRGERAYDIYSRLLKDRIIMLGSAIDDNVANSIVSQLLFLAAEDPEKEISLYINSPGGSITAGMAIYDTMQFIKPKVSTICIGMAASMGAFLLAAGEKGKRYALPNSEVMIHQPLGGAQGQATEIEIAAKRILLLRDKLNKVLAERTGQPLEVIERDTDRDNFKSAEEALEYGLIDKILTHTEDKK
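ClpP 10 microg/mL final, pH 8 Tris/KCl buffer with BSA, glycerol, Tween-20; compound pinned in; FRET-FV substrate; RT 20 min; Ex320/Em430; ΔFRET vs ADEP 5.8 microM, DMSO, no enzyme.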
gsp antagonist: gsp mutant antagonism; Potency, µM (series often up to 76.9 µM), for the others: top-dose activity change, negative = inhibition, actives largely listed as inhibitors; 0.4% of 340,000 active; gsp-mutant cells, cAMP HTRF, 30 min; control for the full effect not named in the record; active = falling curve of any shape with a large fitted effect; inconclusive = falling curve, mostly with a smaller effect; inactive = flat or rising curve; cell line not stated here;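 further: intracellular cAMP measured with PDE inhibitor Ro 20-1724 present during compound exposure; potency means the concentration at half of the fitted maximal effect; on the % scale 0 is the no-effect control and ±100 the full control effect; nearly all actives have a fitted effect of over 65% in size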
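G418-selected cells were plated in DMEM/10% FBS for 16-24 h at 37C, then treated with compounds plus the PDE inhibitor […] (300 uM solution added) for 30 min at 37C. Intracellular cAMP was measured by HTRF after 30 min lysis at room temperature.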
Active calls of the source: *; u = inconclusive; x = no result given; & = joins results of further samples; [ ] = another dose, or the depositor's remark.

SMILES	TRPV1 PAM	Sfp PPTase inh	Menin-MLL FL inh	D2 PAM	gsp ag	ClpP mod	gsp antagonist
Cc1cc(C)n(C(=O)Cn2nc([N+](=O)[O-])cc2C)n1	13	21%	-3.3	-1	-4%[15.4 µM]	x	21%
CCn1cc([N+](=O)[O-])c(C(=O)Nc2nc(-c3ccc(C)c(C)c3)c(C)s2)n1	4	14%	2.9	1	7%	0.2%	-10%
Cc1ccc2oc(=O)c3cnn(CC(=O)Nc4ccccc4N4CCN(C)CC4)c3c2c1	-1	14%	1.8	-6	11%	1.2%	-1%
Cc1cccc(C)c1NC(=O)CN(C)C(C)C(=O)Nc1ccccc1-c1ccccc1 (stereo unspecified)	u	-8%	-1.2	-22	-10%	-4.1%	-1%
Cc1cccc(NC(=O)c2cc(S(=O)(=O)N3CCC4(CC3)OCCO4)ccc2F)c1	-1	13%	-0.5	-5	-35%[inhibitor]	-2.4%&0.6%	-6%
CCn1c(SCC(=O)OC)nc2sc3c(c2c1=O)CC(C)(C)OC3	-14	5%	6.1	-1	7%[15.4 µM]	x	6%
Oc1[nH]c2ccccc2c1N=NC(=S)N1CCOCC1	4	-28%	-0.8	-15	-14%	0.4%	-7%
O=S(=O)(NNc1cccc(Cl)n1)c1ccc(Cl)cc1	4	40µM*	0.6	-57	u	-4.1%	5%
Cn1cc(C(=O)N/N=C/c2ccc3c(c2)OCO3)c2ccccc21	-10	-16%	-6.5	-13	-14%	x	-8%
CC(C)(C)NC(=O)C(c1ccccc1F)N(Cc1ccco1)C(=O)c1csnn1 (stereo unspecified)	-7	16%	0.2	1	2%	-0.4%	-24%
CCOC(=O)C1(Cc2cccc(OC)c2)CCN(Cc2cccc3c2OCO3)CC1	0	10%	-2.5	-12	2%[15.4 µM]	x	-6%
Cc1ccc2cccc(OCC(=O)Nc3cccc(S(=O)(=O)N4CCCC4)c3)c2n1	-4	x	x	2	6%	-6.3%	u
CC1Cc2cc(/C(O)=C3/C(=O)C(=O)N(CCCN4CCOCC4)C3c3ccc(C(C)C)cc3)ccc2O1 (stereo unspecified)	10	2%	x	-8	u	-0.7%	-9%
COc1cc(C(=O)NCCc2ncccc2C)ccc1OC1CCN(C(C)=O)CC1	13	16%	x	1	-40%[inhibitor]	-1.2%	15%
COc1ccc(N2C(=O)[C@@H]3C(c4cccnc4)=NO[C@@H]3C2=O)cc1	-3	79µM*	8.6	6	7%	-1.3%	2%
COCCCn1c2nc3ccccc3nc2c2c(=O)n(-c3ccccc3OC)c(C)nc21	-3	23%	3.5	x	x	x	x
Cc1nc2c(c(-c3ccccc3)c1C#N)C(=O)c1ccccc1-2	-2	0%	0.2	22	0%	-0.5%	-25%
COc1ccc(-n2c(Cn3nc(C(F)(F)F)cc3C)n[nH]c2=S)cc1	11	0%	3.4	11	u	-0.2%	-4%
COc1cccc(CN(C)C(=O)c2ccccc2SCC(=O)N2CCCC2)c1	16	x	x	-7	5%[15.4 µM]	2.1%	4%
CC(Oc1cccnc1[N+](=O)[O-])C(=O)Nc1ccc(F)cc1 (stereo unspecified)	-13	x	x	-4	43%	2.3%	2%
CC(C)OC(=O)CSc1nnc(-c2cnccn2)n1-c1ccccc1	-1	7%	0.9	-9	32%	-23%	6%
CC(C)=C1C2CCC1C1C(=O)N(c3nccs3)C(=O)C21 (stereo unspecified)	0	-4%	13	0	-9%	-2.2%	15%
CC1CC(C)CN(S(=O)(=O)c2ccc3c(c2)CC(C)N3C(=O)C2CCC2)C1 (stereo unspecified)	4	-7%	-7.1	-13	15%	-2.0%	-19%
COc1ccc(S(=O)(=O)N2CCN(C(=O)c3cc(C)on3)CC2)cc1	-1	x	x	-10	-22%	1.0%	1%
CN(C)CCCOC(=O)Cc1ccc(Cl)cc1	14	3%	7.9	5	-47%[inhibitor]	-2.2%	-1%
C=CCn1c(SCC(=O)c2ccc(OC)cc2)nnc1-c1ccc2c(c1)OCO2	-9	7%	3.5	-4	-16%[15.4 µM]	x	-17%
O=C(Nc1cccc(C(=O)O)c1)/C(=C\c1ccc2c(c1)OCO2)NC(=O)c1ccco1	-1	2%	-0.7	-2	29%	-1.4%	1%
O=C(Nc1ccc(Cl)cc1)Nc1ccc(Oc2cccnc2)nc1	u	12%	1.6	-1	-18%	-0.6%	-3%
N=c1n(Cc2ccccc2)c2ccccc2n1Cc1ccccc1	2	-3%	-0.1	-8	-55%[inhibitor]	-2.3%	15%
O=C(NNc1ccccc1[N+](=O)[O-])Nc1ccc(F)cc1F	16	-6%	-1.8	-2	18%[15.4 µM]	-20%	4%
COc1ccccc1N(CC(=O)NC1CCCC1)C(=O)CNC(=O)c1cccs1	12	14%	-2.7	1	-74%[inhibitor]	x	8%
CC(C)Cn1c(SCC(=O)N2CCc3ccccc3C2)nc2cc(Cl)ccc2c1=O	-1	-3%	4.0	-13	11%[15.4 µM]	3.1%	-22%
Cc1ccc(SC[C@H](c2ccccc2)N2CCN(CCc3ccccc3)CCC2=O)cc1	-12	-16%	8.1	-30	u	2.1%	-13%
Cn1c2ccccc2c(=O)c2c(=O)n(-c3ccccc3)c(C3CCCCC3)nc21	17	u	-0.6	-1	1%	-2.7%	2%
Cc1ccc(S(=O)(=O)N(C)c2ccc(OCc3cccc(C)c3)cc2)cc1	-5	10%	x	-11	8%	22µM*	-4%
Cc1ccc(-n2nnnc2SC(C)C(N)=O)c(C)c1 (stereo unspecified)	-6	13%	2.0	4	12%	-0.6%	-8%
C/C(=N\NC(=O)c1ccccc1)c1cccc(Br)c1	1	3%	1.7	-10	-2%	x	-4%
COc1cc2cc(C(c3nnnn3C(C)(C)C)N3CCC(C)CC3)c(=O)[nH]c2cc1OC (stereo unspecified)	6	7%	0.6	-10	-2%	13µM*	-5%
Nc1c(C(=O)NCC2CCCO2)sc2nc3c(c(-c4ccco4)c12)CC/C3=C\c1ccco1 (stereo unspecified)	-8	32µM*	4.2	-22	7%	0.7%	-8%
O=C(Nc1cc(C(F)(F)F)ccc1N1CCOCC1)c1ccco1	-12	3%	-5.2	-3	-38%[inhibitor]	-2.7%	8%
CCOCCCn1c(=S)[nH]c2cc(C(=O)NC3CCCC(C)C3C)ccc2c1=O (stereo unspecified)	2	26%	1.8	-7	24%	0.4%	10%
Fc1ccc(C(c2nnnn2C2CCCC2)N2CCc3ccccc32)cc1 (stereo unspecified)	0	-1%	-5.0	-5	0%	-1.6%	-3%
COc1cc(C2=NOC(C(=O)Nc3ccc(C(C)=O)cc3)C2)cc(OC)c1OC (stereo unspecified)	-4	1%	4.1	-7	-7%	0.1%	8%
Nc1nc(N)c2sc3nc4c(cc3c2n1)CCC4	-2	13%	1.9	-2	14%	u	3%
COc1ccccc1C(=O)N1C(CC(=O)Nc2ccccc2C)C(=O)NC2CCCCC21 (stereo unspecified)	3	6%	-7.2	5	-9%	-0.3%	1%
CCOC(=O)/C(C#N)=c1/s/c(=C2\C=Cc3ccccc3N2CC)c(=O)n1CC	-7	11%	u	-17	-7%	-2.4%	-11%
Cc1ccc2cc(NC(=O)c3ccccc3C)ccc2n1	14	10%	4.7	-3	9%	-1.2%	4%
CCOC(=O)C1=C(C)NC(SCC(=O)OC)=C(C#N)C1c1ccc(C(=O)OC)cc1 (stereo unspecified)	6	56µM*	0.4	-6&4	-7%&18%	1.4%&6.8%	-32%&-19%
CCOC(=O)C1=CC[C@@H](c2cccc(C)c2)N(S(=O)(=O)c2ccc(C)cc2)[C@H]1C(=O)OCC	-13	x	x	-5	17%	0.4%	-11%
Cc1ccc(NC(=O)CN(C)S(=O)(=O)c2cccs2)cc1F	-11	4%	1.4	-19	1%	-2.2%	-6%
C/C(CC(=O)Nc1ccccn1)=N\NC(=O)c1ccncc1	27	-5%	-7.6	x	x	x	x
CCCOc1ccccc1C(=O)N(Cc1ccco1)C1CCS(=O)(=O)C1 (stereo unspecified)	1	14%	1.0	-12	1%	2.0%	4%
O=C(NCCc1ccccn1)/C(=C/c1ccco1)NC(=O)c1ccccc1	0	u	3.6	-7	u	0.2%	11%
Cc1ccc(S(=O)(=O)N(C)C)cc1NC(=O)CN1CCN(Cc2ccccc2)CC1	u	16%	0.5	-15	11%[15.4 µM]	-2.1%	-10%
CCN(Cc1ccccc1)C(=O)c1cccc(S(=O)(=O)N2CCN(Cc3ccccc3)CC2)c1	-28	x	x	10	-17%	0.9%	-16%
O=C(Nc1ccccc1)N1CCCN(Cc2c(F)cccc2Cl)CC1	-33	-2%	2.3	-23	16%[15.4 µM]	1.0%	-9%
CCCNC(=O)CN(C)S(=O)(=O)c1ccc(F)cc1	4	-2%	x	-11	-15%	u	-4%
Cc1cc(-c2nnc(SCC(=O)Nc3nc(-c4ccc(Cl)cc4)cs3)o2)no1	0	9%	4.2	-6	34%	0.3%	-5%
O=C(Nc1cccc([N+](=O)[O-])c1)c1ccccc1	x	10%	2.2	-12	7%	0.1%	-11%
COc1ccc(N2CCN(c3ccc([N+](=O)[O-])nc3)CC2)cc1	-2	0%	-1.3	-1	-25%[15.4 µM]	x	-2%
CC(=O)C1C(=O)CC(C)(O)C(C(C)=O)C1c1ccccc1 (stereo unspecified)	-17	5%	3.3	-7	-4%[15.4 µM]	x	3%
COc1ccc(C2NC(C(=O)O)Cc3c2[nH]c2ccccc32)cc1OC (stereo unspecified)	-3	-15%	u	6	-9%	-14%	11%
O=C(O)c1cc2ccc(O)cc2oc1=O	x	x	x	4	u	4.1%	x

A draw from above in order of molar mass, highest first:
SMILES	TRPV1 PAM	Sfp PPTase inh	Menin-MLL FL inh	D2 PAM	gsp ag	ClpP mod	gsp antagonist
Cc1ccc(S(=O)(=O)N(C)C)cc1NC(=O)CN1CCN(Cc2ccccc2)CC1	u	16%	0.5	-15	11%[15.4 µM]	-2.1%	-10%
CCOC(=O)C1=C(C)NC(SCC(=O)OC)=C(C#N)C1c1ccc(C(=O)OC)cc1 (stereo unspecified)	6	56µM*	0.4	-6&4	-7%&18%	1.4%&6.8%	-32%&-19%
O=C(Nc1ccccc1)N1CCCN(Cc2c(F)cccc2Cl)CC1	-33	-2%	2.3	-23	16%[15.4 µM]	1.0%	-9%
O=C(NCCc1ccccn1)/C(=C/c1ccco1)NC(=O)c1ccccc1	0	u	3.6	-7	u	0.2%	11%
